VDR inhibitor: Inhibitors of the vitamin D receptor (VDR): qHTS; Vitamin D3 receptor (Homo sapiens), P11473; VDR-SRC2-3 peptide fluorescence polarization, 2 h; Potency, µM, for the others: max response, negative = inhibition, most hits filed as inhibitors; 0.93% of 400,000 active; AID 504847, 2011; active means well fitted inhibition curve with a large enough effect; inconclusive means small, poorly fitted or top-dose-only effect, or another doubt; inactive means no such curve, though single readings can be large or run the other way; further: series mostly up to about 120 µM
Target sequence (P11473 whole entry, looked up): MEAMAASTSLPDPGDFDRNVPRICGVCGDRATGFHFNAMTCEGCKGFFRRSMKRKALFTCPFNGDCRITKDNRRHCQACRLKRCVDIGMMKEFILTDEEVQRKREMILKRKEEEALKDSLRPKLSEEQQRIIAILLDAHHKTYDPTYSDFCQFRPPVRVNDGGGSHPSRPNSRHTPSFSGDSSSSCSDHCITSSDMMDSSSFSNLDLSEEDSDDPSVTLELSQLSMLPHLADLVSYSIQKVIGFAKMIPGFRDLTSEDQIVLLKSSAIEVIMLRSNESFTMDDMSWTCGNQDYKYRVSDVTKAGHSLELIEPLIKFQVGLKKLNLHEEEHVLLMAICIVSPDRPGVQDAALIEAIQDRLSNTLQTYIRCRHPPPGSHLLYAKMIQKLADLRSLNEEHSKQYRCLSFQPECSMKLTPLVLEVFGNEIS
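Two reagent solutions held at 4 deg C in the dark were dispensed, compounds pinned at 23 nl, and the mixture incubated 2 h at room temperature. Read-out: fluorescence polarization of VDR–SRC2-3 peptide binding.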
An asterisk follows results filed as active; ? = inconclusive; & = joins results of further samples. On the % scale 0 is the no-effect control and ±100 the full control effect; potency means the concentration at half of the fitted maximal effect.

SMILES	VDR inhibitor
Cc1ccc(C)c(S(=O)(=O)N2CCN(C(=O)CSc3ccccc3F)CC2)c1	13%
CSc1nc(-c2ccccc2)nc(N2CCOCC2)c1C(C)=O	-7%
O=C(O)c1ccc(-c2noc(-c3cccc(C(F)(F)F)c3)n2)cc1	-17%
CC(CN1CCN(C)CC1)OC(=O)c1ccccc1 (stereo not drawn)	13%
CCOc1ccc(CNC(=O)CCn2c(=O)oc3ccccc32)cc1OC	17%
CCOC(=O)C(Nc1ccc2ccccc2c1)C(=O)OCC	-5%
COc1cc(C2C(C(=O)c3ccc(C)o3)=C(O)C(=O)N2CCCn2ccnc2)cc(OC)c1OC (stereo not drawn)	-20%
CCC(C)C(NC(=O)C1CCC(C)CC1)C(=O)NCc1cccnc1 (stereo not drawn)	-6%
FC(F)Oc1ccc(NC(=S)N2CCN(Cc3ccccc3)CC2)cc1	7%
COC(=O)c1sccc1S(=O)(=O)N1CCN(c2ccc(Cl)cc2)CC1	-7%
O=C(COC(=O)c1cccnc1)Nc1ccc2c(c1)OCO2	-10%
COc1ccc(CCNC(=O)/C(C#N)=C2\N=C(NC(=O)c3cccs3)c3ccccc32)cc1	12%
Cc1cc(NCCO)c2cc(O)ccc2n1	-3%
CC(OC(=O)CCC(=O)c1ccc(F)cc1)C(=O)NC1CCCCC1C (stereo not drawn)	3%
CCN(CC(=O)Nc1c(F)cccc1F)C(=O)C1CCCN(C(=O)c2ccc(Cl)cc2)C1 (stereo not drawn)	11%
COc1ccc(S(=O)(=O)Nc2c(F)cccc2F)cc1	?
Cc1ccc(C(=O)NCCCN2CCOCC2)cc1S(=O)(=O)N1CCOCC1	-7%
COc1ccccc1/C=C/C(=O)OCC(=O)Nc1ccccc1Sc1ccccc1	5%
CC(=O)C(Sc1nc(NC(C)(C)C)nc(N(C)C)n1)C(C)=O	-5%
COc1cccc(C(=O)N2CCN(Cc3ccco3)CC2)c1OC	11%
CCOc1ccccc1-c1nc(CN2CCN(C(=O)c3ccco3)CC2)c(C)o1	-13%
c1csc(-c2nc(CN3CCSCC3)cs2)c1	-4%
COC(=O)C1CCN(c2ccc(Cl)nn2)CC1	6%
O=P(O)(O)C(O)c1ccc2ccccc2c1 (stereo not drawn)	9%
Cc1ccsc1/C=N/NC(=O)Cc1cccn1C	-8%
NC(=O)CC(NC(=O)c1ccc(Br)cc1)c1ccc(N2CCC(Br)CC2)c([N+](=O)[O-])c1 (stereo not drawn)	-7%
COc1cccc(/C=N/NC(=S)NCCc2ccccc2)c1OC	15%
COc1cc(O)c(C(=O)CC(=O)c2ccncc2)c(OC)c1	-1%
C/C(N)=C(/C#N)C(=O)COC(=O)COc1ccc(Cl)cc1	-7%&11%
Cc1cccc2[nH]c(CN(C)C(=O)C3CCC(=O)N(C4CC4)C3)nc12 (stereo not drawn)	-8%
COc1cccc(NC(=O)N2CCOCC2)c1	13%
Cc1ccccc1-c1nnc(SCC(=O)NC2CCCCC2)o1	7%
Cc1ccc(CS(=O)Cc2ccc(C(=O)NCc3ccccc3Br)o2)cc1 (stereo not drawn)	-7%
COc1cccc(CNS(=O)(=O)c2ccc3c(c2)CC(C)N3C(=O)C2CC2)c1 (stereo not drawn)	-9%
Cc1ccccc1S(=O)(=O)Nc1ncnc2scc(-c3ccccc3)c12	-12%
Cc1ccc(C2CC(C(F)(F)F)n3nc(C(=O)Nc4c(C)n(C)n(-c5ccccc5)c4=O)cc3N2)cc1 (stereo not drawn)	5%
CC(C)C[C@H](NC(=O)c1nc[nH]c1C(=O)N[C@@H](CCCCN)C(=O)OC(C)(C)C)C(=O)OC(C)(C)C	-20%
COC(=O)c1c(O)cc(C(C)(C)C)n(-c2ccccc2)c1=O	-9%
CCC(C)Sc1cc(-c2nc3ccc(Cl)cn3c2NC2CCCCC2)ccc1OC (stereo not drawn)	?
CCc1ccccc1NC(=O)CSc1nnc(Cn2cnc3ccccc32)o1	4%

At a glance, part of the list above.
SMILES	VDR inhibitor
CCOc1ccccc1-c1nc(CN2CCN(C(=O)c3ccco3)CC2)c(C)o1	-13%
c1csc(-c2nc(CN3CCSCC3)cs2)c1	-4%
COC(=O)C1CCN(c2ccc(Cl)nn2)CC1	6%
O=P(O)(O)C(O)c1ccc2ccccc2c1 (stereo not drawn)	9%
Cc1ccsc1/C=N/NC(=O)Cc1cccn1C	-8%
NC(=O)CC(NC(=O)c1ccc(Br)cc1)c1ccc(N2CCC(Br)CC2)c([N+](=O)[O-])c1 (stereo not drawn)	-7%
COc1cccc(/C=N/NC(=S)NCCc2ccccc2)c1OC	15%
COc1cc(O)c(C(=O)CC(=O)c2ccncc2)c(OC)c1	-1%
C/C(N)=C(/C#N)C(=O)COC(=O)COc1ccc(Cl)cc1	-7%&11%
Cc1cccc2[nH]c(CN(C)C(=O)C3CCC(=O)N(C4CC4)C3)nc12 (stereo not drawn)	-8%
COc1cccc(NC(=O)N2CCOCC2)c1	13%
Cc1ccccc1-c1nnc(SCC(=O)NC2CCCCC2)o1	7%
Cc1ccc(CS(=O)Cc2ccc(C(=O)NCc3ccccc3Br)o2)cc1 (stereo not drawn)	-7%
COc1cccc(CNS(=O)(=O)c2ccc3c(c2)CC(C)N3C(=O)C2CC2)c1 (stereo not drawn)	-9%
Cc1ccccc1S(=O)(=O)Nc1ncnc2scc(-c3ccccc3)c12	-12%
Cc1ccc(C2CC(C(F)(F)F)n3nc(C(=O)Nc4c(C)n(C)n(-c5ccccc5)c4=O)cc3N2)cc1 (stereo not drawn)	5%

Continuation:
SMILES	VDR inhibitor
COc1ccc(CC(=O)Nc2c3c(nn2C(C)(C)C)CS(=O)(=O)C3)cc1OC	-4%
CC1(C)CC(=O)C2=C(C1)OC(N)=C(C#N)C2c1cccs1 (stereo not drawn)	-11%
COc1ccc(N2Cc3cccc(C(=O)Nc4ccc(C)cc4)c3C2=O)cc1	-7%
CC(=O)N1CCN(C(=O)COC(=O)COc2c(C)cc(C)cc2C)CC1	7%
COc1ccc(CCNC(=O)c2cccc(Nc3nc4ccccc4nc3-n3nc(C)cc3C)c2)cc1OC	0%
CC(=O)C1=C(c2ccc(C)cc2)N(C(C)=O)n2c(nnc2C2CCCCC2)S1	-9%
CC(C)(C)c1ccc(-c2nc3cc(NC(=O)c4cc5ccccc5o4)ccc3o2)cc1	-1%
O=C1CCC([N+](=O)[O-])C(c2ccc(F)c(Br)c2)N1 (stereo not drawn)	17%
O=C(CNC(=O)c1ccccc1)OCN1C(=O)c2ccccc2C1=O	-3%
CCCC(=O)Nc1nnc(SCC(=O)NCc2ccc3c(c2)OCO3)s1	-4%
Cc1ccc(C(=O)NCC(=O)NCc2ccccc2F)s1	1%
O=C(OCC(O)C(O)C(O)COC(=O)c1ccccc1)c1ccccc1 (stereo not drawn)	3%
Cc1ccc(S(=O)(=O)Nc2ccc(-c3ccc(N4CCCCCC4)nn3)cc2)c(C)c1	3%
CCC1Sc2ccc(S(=O)(=O)CCC(=O)NC3CCCCCC3)cc2NC1=O (stereo not drawn)	8%
CCOC(=O)[C@H]1[C@H]2COc3cc(OC)ccc3[C@@H]2N2C(=O)N(c3ccc(Cl)cc3)C(=O)[C@@]12C	-12%
Cc1cccc(N=C2NN=C(c3c[nH]c4ccccc34)CS2)c1	-2%
CCc1nnc(NC(=O)c2ccc3c(c2)C(=O)N(C(C)(C)C)C3=O)s1	8%
Clc1ccc(Oc2cnns2)cc1Cl	-4%
CCCc1cc(=O)[nH]c(SCC(=O)Nc2sccc2C#N)n1	-6%
O=C(Cn1c(NCCCO)nc2ccccc21)c1ccc(Cl)cc1Cl	-2%

An excerpt from above in order of molecular weight, largest number first:
SMILES	VDR inhibitor
CCc1nnc(NC(=O)c2ccc3c(c2)C(=O)N(C(C)(C)C)C3=O)s1	8%
Cc1ccc(C(=O)NCC(=O)NCc2ccccc2F)s1	1%
CC1(C)CC(=O)C2=C(C1)OC(N)=C(C#N)C2c1cccs1 (stereo not drawn)	-11%

Continuation:
SMILES	VDR inhibitor
Cc1cc(C)nc(/N=C(\N)Nc2cccc([N+](=O)[O-])c2)n1	0%
COC(=O)c1ccc(NC(=O)CSc2nnc(-c3ccccc3)n2C)cc1	-16%
O=c1[nH]c2ccccc2nc1C(F)(F)C(F)F	2%
Cn1sccc1=O	16µM*
NC(=O)C1CCN(C2CC(=O)N(c3cccc(F)c3)C2=O)CC1 (stereo not drawn)	0%
Cc1ccc(-n2c(=O)c3ccc(C(=O)NCc4ccco4)cc3n(Cc3ccc(Cl)cc3)c2=O)cc1	-14%
CCCCOCCCNC(=O)N[C@H](C(=O)OC)C(C)CC (stereo partly drawn)	10%
COc1ccc(Br)cc1CNC(=O)C1CCN(S(=O)(=O)N2CCCC2)CC1	20%
CCCSC1C(C)=C(C)C(=O)N1Cc1ccccc1 (stereo not drawn)	9%
S=C(Nc1ccccc1)N1CCN(c2ccccc2)CC1	5%
COCc1cc(C)nc(SCC(=O)Nc2ccc3c(c2)OCCO3)c1C#N	22%
O=C(NCCN1CCOCC1)c1cc2sccc2n1Cc1ccc(Cl)cc1	6%
COc1ccc(NC(=O)Cn2cc(S(=O)(=O)c3ccc(C)cc3)c(=O)c3ccccc32)cc1OC	12%
CC(=O)Nc1ccccc1C(=O)C(=O)Nc1cccc(F)c1	1%
O=C(NCCSCc1ccccc1)c1ccc(C2SCC(=O)N2Cc2ccccc2)cc1 (stereo not drawn)	-1%
Cc1cccc(Cc2nnc(CCC(=O)NCc3cnc4ccccn34)o2)c1	6%
COc1ccc(CNC(=O)CCSc2nc(-c3ccc4c(c3)OCO4)cc(C(F)(F)F)n2)cc1	17%
Cc1c(C(=O)N2C[C@@H](C)O[C@@H](C)C2)oc2c(F)cccc12	1%
O=[N+]([O-])c1ccccc1S(=O)(=O)N1CCCCC1	-20%
Cc1ccc(SCC(=O)Nc2cccc(C(=O)NC(C)(C)C)c2)cc1	9%
O=C(CCC(=O)Nc1ccc(F)cc1)N/N=C/c1cc([N+](=O)[O-])ccc1O	2%
COc1cc(SC)ccc1C(=O)Nc1c(Cl)cncc1Cl	-27%
Cn1nnnc1SCC(=O)N1CCN(c2ccccc2)CC1	-7%
Cc1cc(Br)c2c(c1)C1(OCCO1)C(=O)N2	1%
Cc1ccccc1N1C(=O)C2C3C=CC(CC3)C2C1=O (stereo not drawn)	-6%
O=C(O)c1ccc(NS(=O)(=O)c2cc(Cl)ccc2Cl)cc1O	-1%
Nc1c(NCCN2CCCCC2)c2ccccc2oc1=O	9%
COc1ccc(CCNc2ncnc3c2nnn3Cc2ccccc2)cc1OC	-28%
COc1ccccc1C(=O)NCCC(=O)NCCOc1ccccc1	20%
Cc1[nH]c2ccccc2c1C(O)c1ccncc1 (stereo not drawn)	9%
CCOC(=O)c1sc(NC(=O)CN2CCN(c3ccc(OC)cc3)CC2)nc1C	7%
OCc1csc(=Nc2ccccc2)n1-c1ccccc1	8%
CN(CC(=O)NC(=O)NCc1ccccc1)Cc1ccc(Cl)cc1	-10%
CCC(C)NC(=O)[C@H]1N2C(=O)c3c(ccc(OC)c3OC)C2SC1(C)C (stereo partly drawn)	-1%
COc1ccc(C(c2nnnn2C2CCCC2)N2CCC(C(N)=O)CC2)c(OC)c1 (stereo not drawn)	-18%
COc1cc(C)ccc1OCCOc1c(Cl)cc(Cl)cc1Cl	-1%
CCCn1c(SCC(=O)N2CCc3ccccc3C2)nc2c1c(=O)n(C)c(=O)n2C	-2%
CC(c1ccco1)N(C(=O)CSc1ccc(Br)cc1)c1ccccn1 (stereo not drawn)	?
Cn1nc(N)nc1N1CCN(c2ccc(F)cc2)CC1	3%
CC1(C)CC(NC(=O)c2ccccc2C(=O)NC2CC(C)(C)NC(C)(C)C2)CC(C)(C)N1	1%
Cc1ccc(S(=O)(=O)N2CCCCC2)cc1NC(=O)c1c(-c2ccccc2)noc1C	-18%
CCN1C(=NCC(C)C)N[C@@H](c2cccc(F)c2)C(C(=O)OC)=C1C	-2%
CCN(CC)S(=O)(=O)c1ccc(Cl)c(NC(=O)COC(=O)/C=C/c2cc(OC)c(OC)c(OC)c2)c1	-8%
COc1ccc(N2C(=O)CC(Cc3ccc(Br)cc3)C2=O)cc1 (stereo not drawn)	-15%
COc1ccc(/C=N/NC(=O)CCn2c3ccccc3c3ccccc32)cc1O	-5%
CCCn1c(=S)[nH]c2cc(C(=O)NCC3CCCO3)ccc2c1=O (stereo not drawn)	-8%
CCN1C(=O)[C@H]2[C@@H](c3ccc(-c4ccc(F)cc4)cc3)N[C@@](Cc3ccccc3)(C(=O)OC)[C@H]2C1=O	-9%
CC1Cc2nc(SCC(=O)N3CCOCC3)n(C)c(=O)c2S1 (stereo not drawn)	-11%
CN(C)c1ccc(CNC(=O)C(Cc2ccccc2)NS(=O)(=O)c2ccc3c(c2)oc(=O)n3C)cc1 (stereo not drawn)	5%
CCCCN(CCCC)CCCN1CC(=O)N2[C@@H](Cc3c([nH]c4ccccc34)C2(C)C)C1=O	-4%
O=[N+]([O-])c1ccccc1/C=C/CN1CCCC(CO)C1 (stereo not drawn)	-13%
Cc1ccc(-c2c(C)n([O-])c3c([n+]2=O)CCC3)o1	10%
N#Cc1ccccc1OCC(=O)OCC(=O)c1ccc2c(c1)NC(=O)CO2	10%
CCN(C(=O)CSc1nc2ccccc2n1CC(=O)Nc1ccc(F)cc1F)c1ccccc1	10%
C=CCOC(=O)C1=C[C@H](C2CC2)[C@@H](CCCO)[C@H](OCC)O1	-19%
O=C(NCCCN1CCN(c2ccccc2F)CC1)C1CC(=O)N(C2CCCC2)C1 (stereo not drawn)	-28%
Cc1ccc(NC(=O)CN(c2ccccc2)S(=O)(=O)N(C)C)cc1	8%
CC(Oc1ccc(Cl)cc1Cl)C(=O)Nc1ccc(O)cc1 (stereo not drawn)	3%
Cc1cn([C@H]2C=C[C@@H](CO)O2)c(=O)[nH]c1=O	-5%&1%&-5%&9%

Assay outcomes: PubChem BioAssay, National Center for Advancing Translational Sciences (NCATS)

An excerpt; count on the stated rates, not on these rows.
